High-throughput results deposited in PubChem BioAssay by Johns Hopkins Ion Channel Center.
KCNQ2 inh: KCNQ2 potassium channel inhibitors, primary screen, cell-based, CHO-K1, FluxOR thallium flux, B-score (AID 2156); O88943; 20 min; stronger effect = lower value; only compounds with negative scores are shown here; some inactives read as strong as hits; B-score at 10 µM; 310,000 tested, 1.1% active;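 active = fluorescence ratio B-score at most minus 3 library SDs, with starting brightness B-score within 2 library SDs, cut at about -5.5 in these data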
Target sequence (O88943 whole entry, looked up): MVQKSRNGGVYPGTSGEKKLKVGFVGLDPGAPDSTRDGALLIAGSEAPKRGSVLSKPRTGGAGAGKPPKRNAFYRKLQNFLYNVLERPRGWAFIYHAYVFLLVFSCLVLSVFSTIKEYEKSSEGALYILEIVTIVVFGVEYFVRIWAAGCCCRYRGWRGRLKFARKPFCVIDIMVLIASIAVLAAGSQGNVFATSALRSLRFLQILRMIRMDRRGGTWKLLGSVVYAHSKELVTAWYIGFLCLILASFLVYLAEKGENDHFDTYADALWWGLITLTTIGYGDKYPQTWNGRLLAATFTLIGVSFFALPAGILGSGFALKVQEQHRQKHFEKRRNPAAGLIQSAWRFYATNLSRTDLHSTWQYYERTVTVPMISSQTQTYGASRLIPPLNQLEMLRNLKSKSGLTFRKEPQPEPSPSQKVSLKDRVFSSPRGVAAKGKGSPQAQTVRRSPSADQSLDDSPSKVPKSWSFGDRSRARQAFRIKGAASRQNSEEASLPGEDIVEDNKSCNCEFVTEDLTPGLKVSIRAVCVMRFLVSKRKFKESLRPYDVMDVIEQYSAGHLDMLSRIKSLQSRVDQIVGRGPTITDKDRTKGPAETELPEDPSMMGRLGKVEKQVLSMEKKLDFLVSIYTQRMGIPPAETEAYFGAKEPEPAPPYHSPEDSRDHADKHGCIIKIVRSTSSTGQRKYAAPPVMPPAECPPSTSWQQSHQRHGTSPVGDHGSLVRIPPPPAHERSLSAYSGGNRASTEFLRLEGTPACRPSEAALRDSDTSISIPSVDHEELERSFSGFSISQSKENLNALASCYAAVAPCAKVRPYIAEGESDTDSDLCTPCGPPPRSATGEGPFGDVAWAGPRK
KCNQ2 inh baseline: also measured in KCNQ2 inh; calls as there; B-score; measured here: initial fluorescence intensity artifact check;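 brightness before thallium and not channel activity; 0 = typical well and far values either way flag optical interference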
* = called active by the depositor; i = inactive. A portion of the library; the hit share may differ from the screen's.

structure,KCNQ2 inh,KCNQ2 inh baseline
Cc1nc(-c2ccc(NC(=O)c3ccc(Br)o3)cc2)cs1,i,0.87
CCOc1cc(CN2CCN(C(=O)c3ccco3)CC2)ccc1OC,i,1.6
Cc1ccc(NS(=O)(=O)N2CCOCC2)c(C)c1,i,-0.47
Nc1nc(-c2nonc2N)no1,i,2.3
COc1ccc(C2(C)NC(=O)N(CC(=O)Nc3cccnc3Cl)C2=O)cc1 (stereo unspecified),i,-0.51
C=C(C)COc1ccc(-c2nc(N)ncc2-c2ccc(OC)c(OC)c2)c(O)c1,i,-0.08
Cc1cc(Br)cc(Cl)c1OC(=O)c1ccncc1,i,2.3
CCOC(=O)C1CCN(C(=O)C2CCC(=O)N(CC3CCCCC3)C2)CC1 (stereo unspecified),i,-0.38
Cn1c(=O)oc2cc(S(=O)(=O)N3CCCC(C(=O)N4CCc5ccccc5C4)C3)ccc21 (stereo unspecified),i,0.32
CCOC(=O)CSc1ccc(S(=O)(=O)N2CCCCC2)cc1[N+](=O)[O-],i,0.74
CCN(CC)CCN=C1CCCc2ccccc2N1,i,-0.99
O=C1OC2CC3CC1CC(O)(C3)C2 (stereo unspecified),i,2.1
Cc1ccccc1NS(=O)(=O)c1cc(C(=O)NCCC2=CCCCC2)ccc1Cl,i,1.1
C#CCNC(=O)C1=C[C@@H](c2ccc(Br)cc2)C[C@@H](OCCCCO)O1,i,1.6
Cc1cccc(NC(=O)COC(=O)c2cc(C)oc2C)c1,i,1
CCCCNC(=O)C1CC(=O)N(C2CCCCC2)C1 (stereo unspecified),i,-0.29
NS(=O)(=O)c1ccc(NC(=O)NC2CC(=O)N(c3ccc4c(c3)OCCO4)C2)cc1 (stereo unspecified),i,0.84
O=C1/C(=C/c2ccco2)CCc2ccccc21,i,0.26
Cc1ccc(NC(=O)CCc2nnc3ccc(N4CCN(C)CC4)nn23)cc1F,i,-0.04
CC(=O)NNC(=S)NC(=O)c1cccc([N+](=O)[O-])c1,i,-0.42
CC(C)N(C(=O)CSc1nc(Cc2ccccc2)nc2ccccc12)C(C)C,-6.3*,-0.69*
CC1(C)c2[nH]c3ccccc3c2C[C@@H]2C(=O)N(Cc3ccccc3)C(=O)N21,i,0.42
COc1ccc(Cl)cc1NC(=O)CN(C)C(=O)CNC(=O)C12CC3CC(CC(C3)C1)C2,i,-0.83
CCOc1cccc(CN2CCCC(N3CCc4ccccc4C3)C2)c1O (stereo unspecified),i,0.01
O=C(CN(C(=O)CSc1nc2ccccc2o1)c1ccccc1)NC1CCCCC1,i,-0.08
Cc1cccc(OCC(O)CN2CCN(C3CCCCC3)CC2)c1 (stereo unspecified),i,2.1
COc1ccc(C=O)cc1Cn1cnc2c(cnn2C)c1=O,i,-0.56
COc1ccccc1NC(=O)N1CCOCC1,i,-0.63
O=C1NC(=O)C(c2ccc(F)cc2)N1 (stereo unspecified),i,1.5
Cc1ccc(CNC(=O)CC2Sc3ccccc3NC2=O)cc1 (stereo unspecified),i,-0.03
COc1cccc(C(=O)SC2=NCCS2)c1,i,2.5
Cc1ccc(NC(=O)COc2coc(CN3c4ccccc4CC3C)cc2=O)c(C)c1 (stereo unspecified),i,-1.9
O=C(COC(=O)CCc1c[nH]c2ccccc12)Nc1cc([N+](=O)[O-])ccc1Cl,i,-0.03
O=C(Cn1nc(-c2ccc(F)cc2)ccc1=O)Nc1ccc2c(c1)OCCO2,i,-1.1
CCn1c(=O)c2ccccc2n(Cc2cccc(C)c2)c1=O,i,-0.27
CCOCCc1c(O)nc(SCC(=O)N2CCOCC2)[nH]c1=O,i,0.91
CCOC(=O)c1c(NC(=O)CSc2nnc(C)c(=O)[nH]2)sc(C)c1-c1ccc(C)cc1,i,-0.03
Cc1ccc(NCN2C(=O)c3ccccc3C2=O)c(C)c1,i,1.2
Cc1ccc(C)c(CNS(=O)(=O)c2ccc3c(c2)C(C)(C)C(=O)N3C)c1,i,-2
COc1cccc(NC(=O)C2CCCN2C(=O)Nc2ccccc2)c1 (stereo unspecified),i,1.4
CC(CN1CCCCC1)OC(=O)c1ccc2c(c1)OCCO2 (stereo unspecified),i,-3.1
CCN1CCSc2ccc(C(=O)NCc3cccc(Br)c3)cc21,i,2.3
CCOC(=O)c1c(C)nc(-c2ccccc2)nc1NC(C)=O,i,-2.5
Cc1cc(C)nc(Oc2ccc([N+](=O)[O-])cc2)n1,i,-0.04
COC(=O)c1c(C(=O)OC)c(-c2ccc(OC)cc2)n2c1CS(=O)(=O)C2,i,-0.71
CCOC(=O)C1=C(C)N(CC(C)C)C(=O)C1,i,1.6
COc1ccc(/C=N/c2oc(C)c(C)c2C#N)c(OC)c1,i,0.3
CCN1CCN(c2cc(C)c3cc(NC(=S)N4CCN(c5ccccc5)CC4)ccc3n2)CC1,i,2.5
CCn1c(O)c(C=Nc2ccccc2)oc1=S,i,0.13
CCOc1cccc(OCCCOc2ccccc2)c1,i,-0.28
CCc1cccc(NC(=O)COC(=O)/C=C/c2cccs2)c1,i,2
CC(C)(C)OC(=O)N1CC=C2C(C#N)=C(N)C(C#N)(C#N)C(c3cccs3)C2C1 (stereo unspecified),-6.2*,-0.8*
Cc1ccc(S(=O)(=O)N(C)C)cc1N,i,-0.74
CCN(Cc1cc(=O)n2ccsc2n1)c1cccc2ccccc12,i,0.78
CCN(C(=O)CN1C(=O)S/C(=C\c2ccc(F)cc2)C1=O)C1CCS(=O)(=O)C1 (stereo unspecified),i,0.05
CCc1ccc(-n2c(SCC(=O)Nc3cccc(S(=O)(=O)NC4=NCCCCC4)c3)nc3ccccc3c2=O)cc1,i,-2
Cc1ccc2c(c1)N(C)/C(=C/c1cccc[n+]1CCO)S2,i,-0.18
COc1cc(CN2CCN(C(c3ccccc3)c3ccccc3)CC2)cc(OC)c1OC,i,0.47
O=C1NC(c2ccccc2)=CC(c2ccccc2)N1 (stereo unspecified),i,-1
COc1ccc(NS(=O)(=O)c2cccc(C(=O)NCc3ccco3)c2)cc1,i,0.74

The final three entries of the section before open the next one.
structure,KCNQ2 inh,KCNQ2 inh baseline
COc1cc(CN2CCN(C(c3ccccc3)c3ccccc3)CC2)cc(OC)c1OC,i,0.47
O=C1NC(c2ccccc2)=CC(c2ccccc2)N1 (stereo unspecified),i,-1
COc1ccc(NS(=O)(=O)c2cccc(C(=O)NCc3ccco3)c2)cc1,i,0.74
CC(C)(C)NC(=O)COC(=O)c1ccc(Cl)cc1O,i,-2
Cc1cc(N=Cc2c(O)n(-c3ccc4c(c3)OCO4)c(=O)c3ccccc23)ccn1,i,-1
COC(=O)[C@@]1(Cc2ccc(OC)cc2)[C@H]2c3cc(C(=O)N(C)C)n(CCc4ccc(OC)c(Br)c4)c3C[C@H]2CN1C(=O)c1ccccc1,i,1.3
O=C1CCN(N=Nc2cccc(Cl)c2)N1,i,0.48
CCOC(=O)C1=C(CN2CCCCC2)NC(=O)NC1c1cc(C)ccc1C (stereo unspecified),i,0.11
Cc1ccc(N2CCN(C(=S)Nc3ccc(Cl)cc3)CC2)cc1,i,-1.8
CN(C)S(=O)(=O)c1cccc(NC(=S)NCCc2ccccn2)c1,i,0.27
Cc1ccc(NC(=O)c2cc(=O)c3ccccc3o2)cc1S(=O)(=O)N1CCCCC1,i,0.04
CC(NC(=O)CSc1ncn[nH]1)c1ccc(Cl)cc1Cl (stereo unspecified),i,0.5
CCc1ccc(NS(=O)(=O)c2c(C(=O)N3CCCCCC3)c(C)n(C)c2C)cc1,i,1.3
CCOC(=O)C1=C(C)OC(N)=C(C#N)C1c1cncc(-c2ccc(F)cc2)c1 (stereo unspecified),i,0.6
COC(=O)C1N[C@@H]([C@@H](NC(=O)COc2ccccc2)C(=O)NCc2ccc(OC)cc2)SC1(C)C (stereo partly specified),i,-0.1
O=C(CCc1ccccc1)NCCSCc1c(F)cccc1Cl,i,-0.09
Cn1ccnc1-c1nnn(-c2ccc(F)cc2)n1,i,2.9
COc1ccc(C(=O)NNC(=O)Cn2nnc(-c3ccc(OC)c(OC)c3)n2)cc1,i,2.7
COc1ccc(Cc2nnc(N)s2)cc1,i,-0.1
O=C(CN1C(=O)CSc2ccccc21)Nc1ccc2c(c1)OCCO2,i,0.96
CCc1ccc(NC(=S)NC(=O)CC(C)C)cc1,i,-0.94
COCCNC(=O)CN(Cc1cccs1)C(=O)CCC(=O)Nc1nccs1,i,0.11
CCOc1cccc(/C(O)=C2/C(=O)C(=O)N(Cc3cccnc3)C2c2ccco2)c1 (stereo unspecified),i,2
COc1ccc(C2=CC(c3ccc(OC)c(OC)c3)NC(=S)N2)cc1 (stereo unspecified),i,-0.95
Cc1ccc(C)c(-c2nn(-c3cc(N4CCN(CCO)CC4)ccc3[N+](=O)[O-])c(=O)c3ccccc23)c1,i,1.6
O=C(NCc1ccccn1)C1CC(c2ccc(F)cc2)=NO1 (stereo unspecified),i,-0.2
c1ccc(C2[C@H]3CN(Cc4cccnc4)[C@H](c4ccccc4)C34CC2(c2cccnc2)C4)cc1 (stereo partly specified),i,-2.1
CSc1cccc(NC(=O)C2CCN(S(C)(=O)=O)CC2)c1,i,-0.31
CC1(C)Cc2nc3oc4c(=O)n(CC(=O)Nc5ccccc5)cnc4c3cc2CO1,i,0.95
COc1ccc(CCNC(=O)Cn2cc(C(F)(F)F)cc(Cl)c2=O)cc1OC,i,1.4
CC(C)N(C(=O)COC(=O)c1cncc(Br)c1)C(C)C,i,-1
O=C(NN1C(=O)c2ccccc2NC1c1ccco1)c1ccc([N+](=O)[O-])cc1 (stereo unspecified),i,0.26
COc1cc(C(=O)NCc2nnc(SCC(=O)Nc3cccc(C)c3)o2)cc(OC)c1OC,i,0.21

Structural class: the compounds so far containing a cyano group
structure,KCNQ2 inh,KCNQ2 inh baseline
COc1ccc(/C=N/c2oc(C)c(C)c2C#N)c(OC)c1,i,0.3
CC(C)(C)OC(=O)N1CC=C2C(C#N)=C(N)C(C#N)(C#N)C(c3cccs3)C2C1 (stereo unspecified),-6.2*,-0.8*
CCOC(=O)C1=C(C)OC(N)=C(C#N)C1c1cncc(-c2ccc(F)cc2)c1 (stereo unspecified),i,0.6

Next records follow:
structure,KCNQ2 inh,KCNQ2 inh baseline
Cn1c(/C=C/c2ccc(Cl)cc2Cl)c([N+](=O)[O-])c(=O)n(C)c1=O,i,2.7
Cn1c(=O)c(=O)n(C)c2cc(S(=O)(=O)CCC(=O)Nc3cccc(C(F)(F)F)c3)ccc21,i,0.14
CN(C)c1ccc([N+](=O)[O-])cc1C(=O)O,i,-0.06
O=C(c1cc(-c2cccc(O)c2)on1)N1CCCC1,i,0.34
COc1ccc2c(CCNC(=O)c3ccco3)c[nH]c2c1,i,0.58
Cc1ccc(F)cc1CNC(=O)C1CCC(=O)N(C2CC2)C1 (stereo unspecified),i,-0.4
Cc1cccc(CCNC(=O)C2CCCN(c3cnccn3)C2)c1 (stereo unspecified),i,-1.7
O=C(NC(C(=O)N/N=C/c1cccc2ccccc12)c1n[nH]c(=O)c2ccccc12)c1ccccc1 (stereo unspecified),i,-0.01
COc1cccc(N2C(C(C)=O)=NN(c3ccccc3)C2c2ccc(N3CCOCC3)cc2)c1 (stereo unspecified),i,1.4
O=C(Nc1cccnc1)c1ccc2c(c1)OCO2,i,-0.29
C=C(C)C1CC=C(C)/C(=N/NC(=O)CNc2ccc(OCC)cc2)C1 (stereo unspecified),i,0.05
CC(C)CSc1nc2ccccc2[nH]1,i,-1.7
COc1ccc(OC)c(NC(=O)COc2ccc(S(=O)(=O)NC(C)C)cc2)c1,i,1.5
CCOc1ccc(-n2c(SCc3nc(-c4ccc(C)cc4)no3)nnc2-c2ccncc2)cc1,i,0.56
O=C(COC(=O)Cn1cnc2ccccc21)Nc1cccc(S(=O)(=O)N2CCOCC2)c1,i,2.3
Cc1ccccc1-c1nnc(SCCOc2ccc3c(C)cc(=O)oc3c2)o1,i,2
Cc1cc(C)nc(-n2nc(C)cc2Nc2ccccc2)n1,i,-0.16
O=C(Oc1ccccc1)N1CCN(c2ccc(F)cc2)CC1,i,-0.36
CC(=O)c1ccc(-c2cccs2)s1,i,2.6
Cc1ccc(NC(=O)CSc2nc(=O)n(Cc3ccncc3)c3c2CCC3)c(C)c1,i,1.3
c1ccc(-c2cc(N3CCCCC3)c3ccccc3n2)cc1,i,-0.81
Cc1ccc(-c2nc3ncccc3o2)cc1NC(=O)c1ccco1,i,-0.43
O=c1c2[nH]c3ccccc3c2ncn1Cc1ccco1,i,-1.4
COc1ccccc1OCC(=O)Nc1cccc(-c2nc3ccccc3o2)c1,i,-0.56
Fc1cccc(Cl)c1C1Nc2cccc3cccc(c23)N1,i,-1.2
Cc1ccc(C(=O)N/C(=C\c2cn(C)c3ccccc23)C(=O)N2CCN(C)CC2)cc1,i,1.8
Cc1ccccc1NC(=O)CN1CCC(NC(=O)Nc2ccccc2)CC1,i,1.3

3 entries already listed, arranged by SMILES length, high to low.
structure,KCNQ2 inh,KCNQ2 inh baseline
Cc1ccc(C(=O)N/C(=C\c2cn(C)c3ccccc23)C(=O)N2CCN(C)CC2)cc1,i,1.8
CCOc1ccc(-n2c(SCc3nc(-c4ccc(C)cc4)no3)nnc2-c2ccncc2)cc1,i,0.56
CC(=O)c1ccc(-c2cccs2)s1,i,2.6
